# Source: PubChem
# Yeast UUG start: alters start codon recognition fidelity in yeast; S. cerevisiae UUG-firefly luciferase reporter, luminescence/redox ratio; activity score, % at 18.7 µM; hit rate 0.13% among 350,000; AID 602363;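 active = replicate mean at a twofold rise or more, about +100% in these data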;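 note: firefly luciferase made from a UUG start codon reports start codon fidelity; reporter light over untreated wells divided by growth signal over untreated wells; some hits fall short of that in this replicate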
# Rce1 inh: blocks yeast Ras-converting enzyme | Q03530 | AID 2563 | yeast membranes, quenched prenylated peptide cleavage fluorescence | hit rate 0.27% among 290,000 | calls only;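 active = fall in fluorescence gain of 50% or more versus controls, with final raw signal at or below 3038400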;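 note: plate controls were neutral control wells for no effect and wells lacking membranes for full effect; tested at 10 µM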
# Target sequence (Q03530 whole entry, looked up): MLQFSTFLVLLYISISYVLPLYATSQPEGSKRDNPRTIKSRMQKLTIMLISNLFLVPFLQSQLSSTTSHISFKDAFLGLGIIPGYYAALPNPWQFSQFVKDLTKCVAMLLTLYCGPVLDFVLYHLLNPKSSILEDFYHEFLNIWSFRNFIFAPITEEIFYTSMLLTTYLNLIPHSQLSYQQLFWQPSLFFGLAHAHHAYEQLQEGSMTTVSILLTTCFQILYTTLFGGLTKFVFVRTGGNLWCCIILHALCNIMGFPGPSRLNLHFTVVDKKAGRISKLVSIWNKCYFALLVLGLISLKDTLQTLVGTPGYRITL
# HIV Env fusion: HIV envelope-mediated fusion inhibition; HeLa-JRFL Env/CEM21 cell fusion, luciferase; inhibition, % at 12.3 µM; hit rate 1.1% among 360,000;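 active = mean replicate inhibition score of at least 50 and every replicate individually at or above 50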;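 note: 0% = plate neutral controls and 100% = maraviroc near 300 nM; one replicate is shown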
# CSC inhib: cancer stem cell inhibition; cancer stem cell-like cells viability, luminescence; inhibition, % at 7.5 µM; hit rate 1.1% among 300,000; AID 2717;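 active = mean at 75% or more and at least half the replicates too; tested in HMLE shEcad cells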;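 note: 0% = median of negative and 100% = median of positive control wells; the first replicate is given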
# PABP polyA inh: PABP-poly(A) binding inhibition. P11940. PABP-poly(A) RNA binding, fluorescence polarization. inhibition, % at 35 µM. hit rate 1% among 290,000;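 active = 50% or more with normal probe brightness, or confirmed in later tests; about a fifth of its hits are not listed in these tables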;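 note: calls also rest on retests at 20 µM and on dose response follow-up; controls were probe without protein and protein plus probe with vehicle; some compounds called inactive have numbers as strong as hits; many hits fall short of the cut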
# Target sequence (P11940 whole entry, looked up): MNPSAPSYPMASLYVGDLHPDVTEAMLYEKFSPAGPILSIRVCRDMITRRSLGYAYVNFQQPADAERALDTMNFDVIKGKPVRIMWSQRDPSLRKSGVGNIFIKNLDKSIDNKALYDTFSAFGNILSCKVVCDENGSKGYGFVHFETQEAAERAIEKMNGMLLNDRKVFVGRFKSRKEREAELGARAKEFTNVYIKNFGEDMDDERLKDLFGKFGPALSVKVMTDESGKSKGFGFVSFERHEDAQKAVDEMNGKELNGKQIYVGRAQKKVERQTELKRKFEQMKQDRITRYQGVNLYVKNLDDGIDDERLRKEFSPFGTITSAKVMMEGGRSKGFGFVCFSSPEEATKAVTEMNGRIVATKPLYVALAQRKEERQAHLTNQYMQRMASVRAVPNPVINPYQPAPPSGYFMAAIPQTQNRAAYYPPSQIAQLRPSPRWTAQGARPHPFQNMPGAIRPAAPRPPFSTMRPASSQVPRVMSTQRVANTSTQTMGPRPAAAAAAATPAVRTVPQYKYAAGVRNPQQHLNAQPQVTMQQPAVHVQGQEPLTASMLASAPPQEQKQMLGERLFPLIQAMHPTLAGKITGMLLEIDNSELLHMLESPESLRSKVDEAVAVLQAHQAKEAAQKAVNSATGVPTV
# MT1-MMP act inh: MT1-MMP (human) activation inhibition | hit rate 0.061% among 360,000 | GFP/RFP ratio change, % at 20 µM | HT1080 RFP-PRO-GFP cells, GFP/RFP ratio fluorescence, overnight; percent of plate control window, DMSO zero;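 active = GFP/RFP ratio change of at least 30% with cell ATP level not reduced by more than half and red fluorescence within 50% of control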; note: strong numbers were not always called active
#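 Read-out: GFP/RFP fluorescence ratio; Test system: RFP-PRO-GFP reporter HT1080 cells; Compound dosing: single-point 20 µM compound, 1% DMSO; Times: overnight compound exposure at 37 °C.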
# eIF4H FP inh: inhibitors of RNA binding by human eIF4H | eIF4H fluorescence polarization binding assay | hit rate 0.94% among 290,000 | Q15056 | inhibition, % at 35 µM;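 active = 50% or more with normal probe brightness, or confirmed in later tests; about a fifth of its hits are not listed in these tables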;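 note: calls also rest on retests at 20 µM and on dose response follow-up; 0% = protein and probe with vehicle and 100% = probe without protein; strong numbers were not always called active; many hits fall short of the cut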
# eIF4H FP inh retest: second read-out of eIF4H FP inh, no call of its own (marks repeat the call); inhibition, %; compound at 20 µM; confirmation average;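 mean of two retest wells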
# PABP polyA inh retest: recorded beside PABP polyA inh, whose call it bears; inhibition, %; compound at 20 µM; confirmation repeats;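 mean of two retest wells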
# MT1-MMP act inh RFP: recorded beside MT1-MMP act inh, whose call it bears; RFP signal change, %; measured here: RFP expression control read;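 0 = vehicle wells; hits needed this value within 50% of zero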
# Starred values were filed as active, the others as inactive; i = inactive; . = no result given. Hits appear at their usual frequency; any-hit rate near 3%.
SMILES,Yeast UUG start,Rce1 inh,HIV Env fusion,CSC inhib,PABP polyA inh,MT1-MMP act inh,MT1-MMP act inh RFP,eIF4H FP inh,others
CCN(CC)S(=O)(=O)c1ccc(C(=O)OCC(=O)Nc2ccc(-c3nc4ccc(C)cc4s3)cc2)cc1,-23,i,-72,-15,-8,3,-2,0,
C#CCOCCOCCOCCNc1nc(N2CCN(C(=O)C([C@@H](C)CC)n3cc(C(N)CO)nn3)CC2)nc(N2CCN(C(=O)C([C@@H](C)CC)n3cc(C(N)COC(=O)C(F)(F)F)nn3)CC2)n1 (some centres undefined),.,i,0,1,.,.,.,.,
COc1nc(NC2CCCCC2)nc(N2CCCCCC2)n1,-8,.,1,.,-1,-3,-12,-1,
O=C(Nc1nc(-c2ccc(F)cc2)cs1)c1ccc(N2C(=O)CCC2=O)cc1,-17,i,19,-11,4,2,-16,-10,
Nc1c(C(=O)Nc2cccc(Cl)c2Cl)sc2nc(-c3cccnc3)ccc12,-5,i,23,9,-8,-26,3,-6,
CC(=O)Nc1cccc(-c2cc3nc(NCc4cccnc4)n(C)c(=O)c3s2)c1,-18,.,-1,.,.,4,7,.,
COC(=O)C[C@H]1c2cc(C(F)(F)F)ccc2S(=O)(=O)N1C1CCCCC1,-9,i,-5,-9,.,1,-6,.,
COC(=O)C1C(=O)C=C(N2CCOCC2)CC1(C)C (centres undefined),-11,i,.,-12,-12,-4,-1,-6,
COC(=O)c1sc(NC(=O)CSc2nnnn2C)nc1C,-22,i,-28,0,0,-1,2,-17,
CCOc1ccc(CCNC(=O)Cn2c(-c3nonc3N)nc3ccccc32)cc1OCC,-15,.,7,8,-20,-8,-13,-11,
COCCCN1CN(S(=O)(=O)c2cccs2)c2nc3ccccc3nc21,-8,i,-12,-14,4,1,7,14,
Cc1ccc2c(CSc3nncs3)cc(=O)oc2c1,-26,i,.,-34,9,4,-3,-4,
COc1ccc(NC(=S)NCCCCCC(=O)C[N+](=O)[O-])cc1,.,i,-7,9,-3,2,1,2,
O=C(Sc1cccc2cccnc12)c1ccccc1Br,-28,i,28,24,5,-4,-12,-6,
CN(C)CCCN(C(=O)C1=COCCO1)c1nc2ccc(Br)cc2s1,-9,i,2,-2,-6,-5,-3,0,
COC(=O)c1sc(N)c(C(=O)OC)c1CSc1nnc(-c2ccccc2Cl)n1C,-14,i,-1,-2,-12,-6,2,3,
O=C(COc1ccccc1/C=C1\SC(=S)NC1=O)Nc1ccc(F)cc1,-12,.,-38,65,.,3,-10,.,
C[C@@]12C(=O)Nc3cc(F)c(F)cc3C(=O)N1[C@H]1c3cc(Cl)ccc3OC[C@@H]1[C@@H]2c1ccccc1,-15,.,.,59,.,-28,-17,.,
CC1CC(NS(=O)(=O)c2cc3c4c(c2)CCN4C(=O)CC3)CC(C)(C)C1 (centres undefined),2,i,61*,-3,.,0,3,.,
Cc1ccc(Nc2c(F)c(F)c(F)c(F)c2C(=O)O)cc1,.,i,12,7,22,2,7,-3,
CCOc1ccc(C(=O)CCC(=O)Nc2ccccc2C)cc1,-8,i,-35,.,3,-6,3,10,
O=C(CN1C(=O)NC2(CCCc3ccccc32)C1=O)NCc1ccc(Cl)cc1Cl (centres undefined),25,i,13,5,-9,-2,-6,-4,
CC(C(=O)N(C)Cc1ccccc1)N1CCN(C/C=C/c2ccccc2)CC1 (centres undefined),-5,i,12,.,2,4,-1,5,
CCCCn1c(N)c(N(CCC(C)C)C(=O)C2CC(=O)N(CCc3ccc(OC)c(OC)c3)C2)c(=O)[nH]c1=O (centres undefined),-9,i,27,2,.,4,9,.,
CC(C)OC(=O)N(C)C[C@H]1OCc2cnnn2CCCC(=O)N([C@@H](C)CO)C[C@H]1C,0,.,23,.,.,4,7,.,
CN1CCN(CC(=O)Nc2ccc(Cl)cc2Cl)CC1,-8,i,.,11,5,-2,2,0,
N=C1C(=O)OCC1c1ccccc1NC(=O)c1ccc(F)cc1 (centres undefined),-13,i,.,-11,-1,7,1,-6,
CC1CCCCN1Cc1c(O)ccc2c(=O)c(-c3ccc(Br)cc3)coc12 (centres undefined),-11,i,23,.,-9,-10,-7,-7,
O=C(/C=C/c1ccccc1Cl)c1ccccc(=O)c1O,.,i,.,108*,-1,-7,-7,84,eIF4H FP inh retest=-14;PABP polyA inh retest=4
O=C(O)CCCNC(=O)CCCNC(=O)C(c1ccccc1)c1ccccc1,.,i,-16,.,0,0,3,-5,
CC(OC(=O)C1CCN(c2ccc(C(F)(F)F)cn2)CC1)C(=O)Nc1ccc(S(N)(=O)=O)cc1 (centres undefined),6,i,5,-16,-22,1,2,-9,
O=S(=O)(c1ccc(-n2cnnn2)cc1)N1CCNCC1,-12,i,-6,-4,-1,-4,1,-11,
CSc1ccccc1C(=O)NC1CCCN(Cc2ccccc2F)C1 (centres undefined),-17,i,11,-13,-15,-2,-1,-8,
O=C(Nc1cccc([N+](=O)[O-])c1)C1CC(=O)N(C2CCCCC2)C1 (centres undefined),.,i,-7,.,-1,7,0,-8,
COC(=O)c1ccc(NC(=O)CN(c2ccc3c(c2)OCO3)S(C)(=O)=O)cc1,.,i,11,15,0,0,2,-4,
CCN(CC)CCCNC(=O)c1cc(Cl)c(NC(=O)C2=C(C)OCCS2)cc1OC,-4,i,11,-11,55*,2,4,93*,
Cc1ccc(C)c(NS(=O)(=O)c2cc(C(=O)NCCSC3CCCCC3)ccc2C)c1,-11,i,.,41,1,-11,-19,-11,
COc1cc(/C=C/C(=O)O)cc(S(=O)(=O)Nc2ccc3c(c2)OCO3)c1OC,-12,i,12,4,43,-2,0,2,
CCOc1ccc2c(C)nc(NC3=NC(C)(C)C=C(C)N3)nc2c1,-4,i,-51,25,-1,-19,-7,2,
CCCCSCCCNC(=O)c1ccc2c(c1)N(CC)C(=O)c1ccccc1S2=O (centres undefined),-12,i,-10,1,6,-3,1,-1,

# Ordered by heavy-atom count (largest number first): some entries from above.
SMILES,Yeast UUG start,Rce1 inh,HIV Env fusion,CSC inhib,PABP polyA inh,MT1-MMP act inh,MT1-MMP act inh RFP,eIF4H FP inh,others
CCCCn1c(N)c(N(CCC(C)C)C(=O)C2CC(=O)N(CCc3ccc(OC)c(OC)c3)C2)c(=O)[nH]c1=O (centres undefined),-9,i,27,2,.,4,9,.,
CC(OC(=O)C1CCN(c2ccc(C(F)(F)F)cn2)CC1)C(=O)Nc1ccc(S(N)(=O)=O)cc1 (centres undefined),6,i,5,-16,-22,1,2,-9,
Cc1ccc(C)c(NS(=O)(=O)c2cc(C(=O)NCCSC3CCCCC3)ccc2C)c1,-11,i,.,41,1,-11,-19,-11,
CCCCSCCCNC(=O)c1ccc2c(c1)N(CC)C(=O)c1ccccc1S2=O (centres undefined),-12,i,-10,1,6,-3,1,-1,
O=C(CN1C(=O)NC2(CCCc3ccccc32)C1=O)NCc1ccc(Cl)cc1Cl (centres undefined),25,i,13,5,-9,-2,-6,-4,
CC(C(=O)N(C)Cc1ccccc1)N1CCN(C/C=C/c2ccccc2)CC1 (centres undefined),-5,i,12,.,2,4,-1,5,
CC1CCCCN1Cc1c(O)ccc2c(=O)c(-c3ccc(Br)cc3)coc12 (centres undefined),-11,i,23,.,-9,-10,-7,-7,
CSc1ccccc1C(=O)NC1CCCN(Cc2ccccc2F)C1 (centres undefined),-17,i,11,-13,-15,-2,-1,-8,
O=C(Nc1cccc([N+](=O)[O-])c1)C1CC(=O)N(C2CCCCC2)C1 (centres undefined),.,i,-7,.,-1,7,0,-8,
CCOc1ccc(C(=O)CCC(=O)Nc2ccccc2C)cc1,-8,i,-35,.,3,-6,3,10,
O=C(/C=C/c1ccccc1Cl)c1ccccc(=O)c1O,.,i,.,108*,-1,-7,-7,84,eIF4H FP inh retest=-14;PABP polyA inh retest=4
CN1CCN(CC(=O)Nc2ccc(Cl)cc2Cl)CC1,-8,i,.,11,5,-2,2,0,

# The list continues:
SMILES,Yeast UUG start,Rce1 inh,HIV Env fusion,CSC inhib,PABP polyA inh,MT1-MMP act inh,MT1-MMP act inh RFP,eIF4H FP inh,others
Cc1ccc(/C=C2\SC(=S)N(c3cccnc3)C2=O)cc1,.,i,-3,4,-5,1,1,-1,
CC1(C)CC(=O)C(CC(=O)Nc2cc(C(F)(F)F)ccc2Cl)C(=O)C1,.,i,9,.,-9,8,8,-7,
CC(=O)OCC(=O)C1CCC2C3CCC4=CC(=O)C=CC4(C)C3CCC12C (centres undefined),-14,.,-252,.,.,2,0,.,
C=CCN(c1ccccc1)S(=O)(=O)c1cccc(C(=O)NC2CCC(O)CC2)c1 (centres undefined),-5,i,-1,-10,.,-2,-1,.,
Cc1nn(-c2ccccc2)c(C)c1NC(=O)COc1ccc([N+](=O)[O-])cc1,-13,i,20,-7,.,1,-3,.,
Cc1cccc(NC(=O)CSc2nc(C)c(Cc3ccccc3)c(=O)[nH]2)c1C,.,i,.,3,-2,.,.,52,eIF4H FP inh retest=-9;PABP polyA inh retest=5
CCn1c(SCC(=O)Nc2ccc3[nH]c(=O)[nH]c3c2)nnc1-c1ccccc1,-15,i,8,8,12,-2,3,4,
CCOC(=O)c1cc(NC(=O)N(C(C)C)C2CCCCC2)c(C)nc1C,-5,i,-11,-13,8,0,-4,1,
COc1ccc(NC(=O)C(=O)N/N=C/c2cc(C)n(-c3cccc(Cl)c3Cl)c2C)c(OC)c1,-11,i,5,13,-1,-2,-1,0,
O=C(O)c1ccc(S(=O)(=O)c2ccc3c(c2)C(=O)N(c2ccc(O)cc2)C3=O)cc1,.,i,0,-7,14,5,3,1,
O=C(CN(Cc1ccccc1)C(=O)c1ccco1)NCc1ccc(F)cc1,5,i,-46,-12,-5,1,-4,-16,
Cc1ccccc1CC1(CO)CCCN(Cc2nc(-c3cccs3)oc2C)C1 (centres undefined),.,i,8,4,-1,-12,-6,-6,
CC(NC(=O)c1ccc(F)cc1)c1nc2ccccc2n1Cc1ccccc1F (centres undefined),-16,i,.,.,-4,-11,-6,-2,
Cc1cc(NC2C3CC4CC(C3)CC2C4)n2nnnc2n1 (centres undefined),-10,i,.,-10,2,2,-4,-7,
Cc1ccc(OC2CCN(C(=O)[C@H]3O[C@@H](n4cnc5c(N)ncnc54)[C@H](O)[C@@H]3O)CC2)cc1,-5,.,24,.,.,1,-3,.,
O=Cc1c(NCCN2CCOCC2)c2ccccc2[nH]c1=O,-8,i,7,9,10,-4,1,6,
